# Screening data: PubChem BioAssay, several laboratories
# LANA-H2A inh: blockers of LANA interaction with H2A/H2B – biochemical, FP readout, HTS, primary screen | 320,000 compounds, 0.6% hits | cell-free LANA-H2A/H2B peptide, fluorescence polarization | Protein LANA1 (Human herpesvirus 8 type P (isolate GK18)), Q9QR71 | inhibition, % (no concentration beside the values); in the data active = inhibition mostly above about 10%, no sharp cut-off; inactive = mostly below about 6.7%;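 also: stock transfer was 7.5 nL into about 10 µL; 0% = median of vehicle wells and 100% = median of positive control wells; one replicate is shown; the record names a cut of 25% in any replicate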
# Vif TR-FRET: inhibitors of Vif binding to APOBEC3G peptide, primary screen, biochemical, TR-FRET, GST-Vif 1-94, biotin-A3G peptide, dose response retest (AID 1117319) | Virion infectivity factor (Human immunodeficiency virus type 1 group M subtype B (isolate … | TR-FRET GST-Vif / biotin-A3G peptide binding; higher % means a stronger effect; test concentration not given here; strong numbers were not always called active | inhibition, %, or IC50 in µM where a hit was titrated | 260,000 compounds, 0.57% hits;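 active = above the screen mean plus three standard deviations and confirmed in dose response; inconclusive = results disagree or hit not tested in dose response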;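 also: Vif residues 1-94 fused to GST binding biotinylated APOBEC3G peptide 110-148; 0% = full assay without inhibitor and 100% = GST in place of GST-Vif; retest series ran down from 100 µM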
# Calb FLC: C. albicans growth inhibition with fluconazole, primary screen, CaCi-2 strain, Alamar Blue fluorescence | C. albicans CaCi-2 (fluconazole-resistant clinical isolate) + fluconazole, 48 h | growth inhibition, % (concentration not given with the values) | 300,000 compounds, 0.57% hits;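 active = most replicates above 75%; inconclusive = exactly half above 75%; inactive = most below 75%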;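 also: all wells also contain fluconazole at 8 µg/ml as a sub-toxic cotreatment; 0% = median of DMSO wells and 100% = median of geldanamycin control wells; wells of about 8 µL received 7.5 nL stock; the first replicate is given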
# ALR inh: inhibitors of human ALR sulfhydryl oxidase, primary screen, biochemical, H2O2 detection, HRP-luminol luminescence, single point; FAD-linked sulfhydryl oxidase ALR (Homo sapiens), P55789; purified ALR, DTT oxidation; inhibition, % (concentration not given with the values); 290,000 compounds, 3.8% hits;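 active = mean and each replicate at 75% or more; inconclusive = only one of the two met; inactive = neither met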;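 also: stock transfer was 7.5 nL into about 7.5 µL; 0% = neutral wells and 100% = wells with inactivated enzyme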
# Target sequence (P55789 whole entry, looked up): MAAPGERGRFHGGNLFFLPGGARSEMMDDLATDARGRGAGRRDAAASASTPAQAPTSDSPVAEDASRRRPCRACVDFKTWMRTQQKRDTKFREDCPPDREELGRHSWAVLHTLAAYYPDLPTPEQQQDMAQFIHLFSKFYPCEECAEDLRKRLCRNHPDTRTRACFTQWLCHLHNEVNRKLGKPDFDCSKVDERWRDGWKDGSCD
# Beta2AR agonist: beta2AR agonists driving receptor internalization, primary screen, cell-based, FAP fluorogen, flow cytometry. Beta-2 adrenergic receptor (Homo sapiens), P07550. Am2.2-beta2AR cells; reference of the scale not given here. 340,000 compounds, 0.43% hits. response, % (concentration not given with the values);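 active = response above a set limit, near 3 SD of response in nonfluorescent compounds, cut at about 42% in these data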;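 also: stock transfer was 100 nL into about 11 µL; a reference agonist was the positive control; negative values mostly stem from fluorescent compounds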
# Target sequence (P07550 whole entry, looked up): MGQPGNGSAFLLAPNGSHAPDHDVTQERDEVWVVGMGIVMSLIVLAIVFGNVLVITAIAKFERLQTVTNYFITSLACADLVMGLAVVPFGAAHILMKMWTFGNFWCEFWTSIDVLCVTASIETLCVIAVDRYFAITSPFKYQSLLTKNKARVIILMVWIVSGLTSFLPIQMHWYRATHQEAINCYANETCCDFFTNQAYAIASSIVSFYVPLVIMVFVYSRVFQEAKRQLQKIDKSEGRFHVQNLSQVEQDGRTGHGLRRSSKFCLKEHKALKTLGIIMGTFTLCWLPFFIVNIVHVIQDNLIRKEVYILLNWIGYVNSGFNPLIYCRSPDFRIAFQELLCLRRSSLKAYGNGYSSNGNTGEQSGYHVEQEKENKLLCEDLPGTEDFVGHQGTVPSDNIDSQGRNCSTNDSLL
# HNF4A DNA FP: change in binding of human HNF4A to DNA, primary screen, biochemical, fluorescence polarization, FITC-DNA. Hepatocyte nuclear factor 4-alpha (Homo sapiens), P41235. 1 h. activity change, % at 10 µM. 360,000 compounds, 0.3% hits. AID 1224865, 2016; in the data active = activity change above about 30%, passing the limit was not always enough;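 also: controls were the assay level and a saturating level of protein; the project sought stronger binding though the title names inhibitors; some compounds called inactive have numbers as strong as hits; positive values seem to mean higher polarization but the record does not say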
# RanGTP-Impb inh: inhibitors of RanGTP-importin-beta interaction, primary screen, biochemical, FRET, CFP-Ran, YFP-importin-beta, homogeneous | Ran GTPase (GTP-bound) - importin-beta complex | cell-free CFP-Ran/YFP-importin-beta FRET ratio | inhibition, % (test concentration not listed) | 300,000 compounds, 1.1% hits | AID 2216, 2009;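 active = most replicates above 15%; inconclusive = exactly half above 15%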;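 also: 0% = DMSO wells and 100% = Ran loaded with GDP instead of GTP; wells of about 40 µL received 100 nL stock; the first replicate is given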
# * marks the source's active call; other numbers are inactive results; ? = inconclusive; . = not tested or not shown. Compounds were not picked by outcome. Share with any hit: about 6.3%.
SMILES,LANA-H2A inh,Vif TR-FRET,Calb FLC,ALR inh,Beta2AR agonist,HNF4A DNA FP,RanGTP-Impb inh
O=C(CCn1c(=O)sc2ccccc21)NCc1ccco1,5.8,.,-5,-1,4,1.4,?
O=S(=O)(c1cccc(-c2cn3ccccc3n2)c1)N1CCCC1,3.6,2%,.,1,-16,-1.1,2.3
CCCCCN(C(=O)CCC(=O)OCc1cccc(F)c1)c1c(N)n(CCCC)c(=O)[nH]c1=O,2.4,-6%,8,-3,-7,2.6,0.9
COc1ccc(C(C)NC(=S)NCc2ccc(F)cc2)cc1OC (centres undefined),-2.5,0%,-1,-1,1,2.9,1.9
CCOC(=O)C(CCCCOc1cccc(CC)c1)C(=O)OCC,1.4,0%,-1,-2,-10,2.1,0.6
Nc1nonc1-n1nnc(C(=O)N/N=C/c2cccnc2)c1CSc1ccc(Cl)cc1,5.8,.,6,4,-28,-0.7,0.6
COc1ccc(C(=O)NCCc2nnc(SCC(=O)Nc3ccccc3F)n2C)cc1,5.6,7%,-7,-5,4,-5.4,-0.3
COC(=O)C1CCN(C(=O)CCC2CCCCC2)CC1,1.3,4%,0,-13,-11,-1.1,-0.5
CCOC(=O)CNC(=O)c1cc(C)oc1C,0.7,8%,.,-17,.,.,.
COc1cc(/C=C2/C(=O)NN(c3cccc(C)c3)C2=O)cc([N+](=O)[O-])c1O,-5.3,?,14,.,21,-14,-2.2
Cn1ncc(N=Cc2ccc([N+](=O)[O-])cc2)c1C(=O)N1CCOCC1,-3.0,6%,2,-13,-3,-1.4,4.8
CCc1ccc(NC(=O)C2CCC(CNC(=O)[C@@H]3Cc4ccccc4CN3)CC2)cc1 (some centres undefined),-4.3,.,.,-2,0,-2.1,-3.8
Cn1c(NCc2cccc(Br)c2)nc2ccccc21,0.2,-1%,6,93*,-23,1.9,5.7
CC(=O)c1cccc(N(CC(=O)Nc2ccc(S(=O)(=O)N3CCCC3)cc2)S(C)(=O)=O)c1,-4.3,.,0,11,-7,-0.8,5.8
CCOC(=O)c1sc(NC(=O)c2cccnc2)nc1C,8.9,-4%,4,1,0,5.3,-3.6
COCCNC(=O)C1Nc2ccc(OC(F)(F)F)cc2C2C=CCC12 (centres undefined),-5.6,.,7,0,-2,-2.2,2.1
CCOC(=O)c1cnc(-n2nc(C)cc2C)nc1Nc1ccc(C)cc1,.,17%,6,.,-13,-0.2,0.9
O=C(CC1C(=O)NCCN1C/C=C/c1ccccc1)NCCCC1CCCC1 (centres undefined),5.4,3%,16,2,-5,-0.2,-3.5
CC(C)CCNC(=O)CCc1nnc2ccc(N3CCC(C)CC3)nn12,2.6,-1%,-4,2,-18,-0.4,-0.1
CCc1nnc(NC(=O)c2ccc(S(=O)(=O)N3CCCc4ccccc43)cc2)o1,0.3,2%,-9,0,-3,-3.0,0.3
O=C1Cc2cc(S(=O)(=O)NCc3ccc(F)cc3)ccc2N1,2.9,3%,.,-4,8,-1.4,.
CC(=O)Nc1ccc(NC(=O)c2ccccc2C)cc1,-9.0,5%,-7,-5,0,-1.1,-6.6
CCCc1nc2ccccc2c(C(=O)OCC(=O)Nc2ccc(S(=O)(=O)N3CCOCC3)cc2)c1CC,-4.2,-3%,8,-7,15,-0.8,-0.6
O=C(CCn1cnnn1)Nc1ccc(F)cc1,1.9,6%,-4,0,6,0.9,0.2
COc1ccc(NC(=O)Nc2nccs2)cc1,-0.2,12%,9,0,-4,-1.9,6.9
CSCC[C@H](NC(=O)OC(C)(C)C)c1nnc(SCC(=O)Nc2c(C)cccc2C)o1,3.3,5%,.,5,0,-0.9,.
CC(C)c1ccccc1NC(=O)CC1(CC(=O)O)CCCC1,0.9,17%,1,-1,4,-1.6,1.4
COc1ccc(OC)c(/C=N/N(CCC#N)C2=NS(=O)(=O)c3ccccc32)c1,0.5,-9%,3,-6,7,-0.2,3.1
Cc1ccc(S(=O)(=O)N2[C@@H](c3ccc(F)cc3)C(C(=O)O)=CC[C@H]2c2cccc(C)c2)cc1,3.4,.,.,.,2,-6.0,.
CC(C)C[C@@]12C(=O)N(c3cccc(Cl)c3)C(=O)N1[C@H](c1ccc(Br)cc1)[C@@H]1C(=O)N(C(C)(C)C)C(=O)[C@@H]12,-7.5,.,.,.,3,-0.1,.
COc1ccc(CN(C)C(=O)c2ccc(NC(=O)CC3SC(N4CCCC4)=NC3=O)cc2)c(OC)c1 (centres undefined),5.1,3%,6,-13,0,3.2,-0.7
Cc1nc2c(C(F)(F)F)cccc2c2c1CCS2,-2.7,-4%,2,-2,20,0.9,2.5
CC(C)C[C@@H](CO)N(Cc1ccccc1)S(=O)(=O)N(Cc1ccccc1)[C@H](CO)CC(C)C,-4.2,.,.,-7,7,-1.0,.
O=C(N/N=C/c1cccc(Oc2ccccc2)c1)c1ccncc1,-4.3,.,16,-2,-6,6.8,?
COC(=O)/C(=C(/F)SCC(C)=O)C(F)(F)F,0.6,75%,-1,-20,.,.,1.0
CCO[C@H]1OC(C(=O)NCc2nc3ccccc3[nH]2)=C[C@@H](c2ccccc2)[C@@H]1CCCO,0.1,.,-2,-3,-8,5.3,1.4
CCOCCCNC(=O)C(c1ccc(C)cc1)N(Cc1cccs1)C(=O)c1ccccc1O (centres undefined),-5.5,-2%,-2,-11,15,-3.4,-4.0
Cc1ccc(S(=O)(=O)NC(CC(N)=O)C(=O)O)cc1 (centres undefined),-1.1,8%,2,-6,3,0.5,4.0
O=C(CN1C(=O)CCS(=O)(=O)c2ccccc21)Nc1ccc(Cl)cc1,-0.8,-2%,8,-8,1,0.4,7.4
CCOC(=O)C1C(=O)NC(c2ccccc2)=NC1c1ccccc1 (centres undefined),-0.5,2%,-5,-33,7,0.9,?
CN1CCN(S(=O)(=O)c2ccc(CNC(=O)c3ccccc3)s2)CC1,-6.2,-2%,4,-1,11,0.8,2.9
Cc1ccc(N2C(=O)c3cccc4c([N+](=O)[O-])ccc(c34)C2=O)c2cccnc12,4.4,-4%,1,.,17,-9.0,-0.4
CC1CCCCN1S(=O)(=O)c1cn(C)c(=O)n(C)c1=O (centres undefined),-4.1,.,-5,-21,1,-1.5,4.4
O=C(/C=C/c1ccc(F)cc1)NCc1ccco1,-5.4,.,-13,-4,0,-1.3,-6.8
Cc1onc(-c2ccccc2)c1C(=O)N1CCCC1,0.7,.,1,-3,-11,-2.8,0.6
c1ccc(N2CCN(C3CCSC3)CC2)cc1 (centres undefined),3.1,1%,-2,72,-5,-3.0,-3.3
Cc1cc(N2CCCC2)n2nc(C)nc2n1,-4.3,.,3,.,-1,0.1,8.2
COc1cc(-n2c(C)nc3cc(C(=O)O)ccc32)cc(OC)c1OC,2.5,-4%,-14,-4,0,-3.1,-0.2
CN(C)C(CNC(=O)c1cc(S(=O)(=O)N2CCOCC2)ccc1F)c1cccs1 (centres undefined),7.2,.,.,-3,-5,0.8,.
O=C(COC(=O)c1cc2ccccc2oc1=O)Nc1cccc(Br)c1,-4.6,-9%,.,1,1,3.6,?
COc1ccc(-c2onc3ccc(Cl)cc23)cc1,3.6,18%,-18,-6,16,1.8,-1.5
Cc1ccc(OCc2cc(C(=O)N3CCc4sccc4C3)no2)cc1C,0.0,.,24,-5,1,-1.8,4.7
CCOC(=O)N1CCN(C(=O)COc2ccc(S(=O)(=O)NCc3ccccc3)cc2)CC1,3.0,-2%,-6,-30,-8,-3.3,1.7
CCCNC(=S)NC1CC2CCC(C1)N2Cc1ccccc1 (centres undefined),0.7,-1%,8,0,-1,3.4,-1.0
COc1ccc(CCn2c(C)cc(C(=O)CSc3nnnn3-c3ccccc3)c2C)cc1,-5.3,10%,-17,2,9,-3.4,3.3
COc1ccc(-c2cc(-c3ccccc3)c(C#N)c(SCC(=O)O)n2)cc1,-2.2,.,36,40,17,1.6,?
CN(C)CCNC(=O)/C(=C/c1cccc([N+](=O)[O-])c1)NC(=O)c1ccccc1,-1.0,.,-2,-8,-3,2.6,-3.6
C/C(=N\NC(=O)c1ccoc1C)c1cccc2ccccc12,-7.3,-4%,7,-5,-4,-1.2,-4.3
Cc1cccc(NC(=O)c2ccc(S(=O)(=O)NCc3ccco3)cc2)n1,4.8,4%,.,-3,0,1.1,.
Cc1cc(C)c2nc(NC(=O)C3CCCO3)sc2c1 (centres undefined),-0.1,7%,9,.,3,-4.4,-1.3

# A draw from above in order of heavy-atom count, highest first:
SMILES,LANA-H2A inh,Vif TR-FRET,Calb FLC,ALR inh,Beta2AR agonist,HNF4A DNA FP,RanGTP-Impb inh
CCCCCN(C(=O)CCC(=O)OCc1cccc(F)c1)c1c(N)n(CCCC)c(=O)[nH]c1=O,2.4,-6%,8,-3,-7,2.6,0.9
CCO[C@H]1OC(C(=O)NCc2nc3ccccc3[nH]2)=C[C@@H](c2ccccc2)[C@@H]1CCCO,0.1,.,-2,-3,-8,5.3,1.4
Nc1nonc1-n1nnc(C(=O)N/N=C/c2cccnc2)c1CSc1ccc(Cl)cc1,5.8,.,6,4,-28,-0.7,0.6
O=C(CN1C(=O)CCS(=O)(=O)c2ccccc21)Nc1ccc(Cl)cc1,-0.8,-2%,8,-8,1,0.4,7.4
Cc1ccc(S(=O)(=O)NC(CC(N)=O)C(=O)O)cc1 (centres undefined),-1.1,8%,2,-6,3,0.5,4.0
COc1ccc(NC(=O)Nc2nccs2)cc1,-0.2,12%,9,0,-4,-1.9,6.9

# Further compounds
SMILES,LANA-H2A inh,Vif TR-FRET,Calb FLC,ALR inh,Beta2AR agonist,HNF4A DNA FP,RanGTP-Impb inh
Cc1nc(NCCN2CCOCC2)c2oc3ccccc3c2n1,1.9,0%,-6,-23,-3,0.2,9.0
CC1CCCN(C(=O)C2CCN(S(=O)(=O)c3ccc4c(c3)CC(C)N4C(=O)C3CC3)CC2)C1 (centres undefined),0.5,.,0,-1,-6,1.2,-1.3
CCOC(=O)C1CCN(c2cc3c(cc2NC(=O)c2ccc(F)cc2)n(C)c(=O)n3C)CC1,0.2,-4%,13,0,8,-4.6,-33
CCC(CC)c1nnc(NC(=O)c2ccc(S(=O)(=O)N3CCc4ccccc4C3)cc2)s1,-1.3,.,0,2,1,2.0,-4.6
O=C(N/N=C(\Cc1ncc[nH]1)c1ccccc1)c1ccncc1,-1.0,-9%,8,.,-1,2.8,-3.2
CCOC(=O)N1CCC(n2c(SCC(=O)NCc3ccccc3)nc3ccccc3c2=O)CC1,2.4,2%,-7,1,-11,0.6,-0.9
CN(C)C(CNC(=O)c1ccc(NC(=O)c2cccs2)cc1)c1ccccc1 (centres undefined),2.6,-1%,-2,-4,-6,0.5,-4.4
O=C1NN(c2ccccc2)C(=O)/C1=C\c1cccn1-c1ccc(Cl)c([N+](=O)[O-])c1,-0.7,6%,-1,63,-5,-1.7,-3.6
COc1cc(C(=O)O/N=C(\N)c2cccc([N+](=O)[O-])c2)cc(OC)c1OC,1.1,-4%,-2,-2,-1,0.9,3.2
